FGF22 binding: shifts melting point of recombinant human FGF22; 340,000 tested, 1.5% active; recombinant FGF22 thermal shift, SYPRO orange fluorescence; percent of sucrose octasulfate shift, DMSO zero; AID 651658; Q9HCT0; calls only at 9.99 µM;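 active = melting point raised past a set limit in the mean and every replicate; inconclusive = no clear call; three in four hits are not shown here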
Target sequence (Q9HCT0 whole entry, looked up): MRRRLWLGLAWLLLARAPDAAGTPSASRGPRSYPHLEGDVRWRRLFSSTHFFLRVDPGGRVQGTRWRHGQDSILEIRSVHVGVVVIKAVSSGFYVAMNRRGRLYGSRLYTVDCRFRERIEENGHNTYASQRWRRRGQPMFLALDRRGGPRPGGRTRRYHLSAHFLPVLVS
T cruzi inh: T. cruzi replication inhibition; T. cruzi beta-gal in NIH3T3, luminescence, 90 h; inhibition, % (no concentration beside the values); 300,000 tested, 1.4% active;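 active = mean inhibition across valid replicates above about 55%, limit read from the data; inconclusive = mean below that limit but half or more replicates reach it; inactive = mean below it, under half of replicates reach it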;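 note: signal also drops with host cell toxicity which is not excluded here; 0% = plate median of DMSO wells and 100% = zero luminescence signal; higher percent means less beta-gal luminescence so fewer parasites; stock transfer was 50 nL into about 50 µL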
AF4-AF9 inh: blocks AF4 peptide binding to human AF9 | AlphaScreen, biotin-AF4 peptide binding to FLAG-AF9 | inhibition, % at 10 µM | 350,000 tested, 0.47% active | AID 651704;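 active = every replicate reaching a set inhibition limit, whatever the replicate mean, cut at about 25% in these data; inconclusive = mean inhibition reaches that limit but some replicates miss it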;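 note: 0% = plate neutral control median and 100% = total signal loss; the record names both 10 and 1 µM as test concentration; the first replicate is given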
Target sequence (P42568 whole entry, looked up): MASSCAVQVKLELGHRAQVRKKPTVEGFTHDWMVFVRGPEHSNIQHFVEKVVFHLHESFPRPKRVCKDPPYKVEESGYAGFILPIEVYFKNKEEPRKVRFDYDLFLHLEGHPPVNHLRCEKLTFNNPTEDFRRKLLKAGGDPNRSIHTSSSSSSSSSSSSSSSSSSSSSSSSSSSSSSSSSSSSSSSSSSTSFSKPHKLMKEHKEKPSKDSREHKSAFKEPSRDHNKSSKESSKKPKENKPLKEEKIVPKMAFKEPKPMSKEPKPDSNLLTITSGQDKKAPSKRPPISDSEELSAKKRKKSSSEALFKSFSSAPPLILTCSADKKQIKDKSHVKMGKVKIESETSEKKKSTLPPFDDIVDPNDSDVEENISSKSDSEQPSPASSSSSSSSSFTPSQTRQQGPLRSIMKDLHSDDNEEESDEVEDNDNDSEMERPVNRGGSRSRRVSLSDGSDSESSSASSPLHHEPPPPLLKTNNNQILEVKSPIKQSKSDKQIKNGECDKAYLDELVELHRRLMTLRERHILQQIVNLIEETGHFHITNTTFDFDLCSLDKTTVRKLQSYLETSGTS
A1 inh: inhibitors of the anti-apoptotic protein A1, read as caspase activation. MEF A1-2A-BIM cells, Caspase-Glo 3/7 luminescence, 3 h; percent of clofoctol response, vehicle zero. caspase activation, % (no concentration beside the values). 330,000 tested, 0.066% active;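 active = over half of replicate activation scores above 10%, or exactly half above 10 with the replicate mean above 10; inconclusive = replicate mean below 10 yet half the replicates above 10; inactive = over half of replicates below 10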;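 note: wells of about 30 µL received 50 nL stock; many hits fall short of the cut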
Ecoli rRNA inh: inhibitors of bacterial rRNA selective over humanized ribosomes; E. coli WT GFP vs humanized-ribosome RFP mutants, fluorescence, 24 h; hits give low values; DMSO median 0, no signal -100; GFP signal change (wild-type ribosome), % (no concentration beside the values); 350,000 tested, 1.6% active;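 active = significant combined selectivity score with lowered wild-type GFP, culture density cut under 30%, mutant RFP and density less affected; inactive = any of these conditions unmet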; note: one replicate is shown; some compounds called inactive have numbers as strong as hits
Beta cell apopt: blocks beta cell apoptosis. INS-1E cytokine-induced death, ATP luminescence, 48 h; percent of positive-control rescue, neutral wells zero. protection from apoptosis, % (concentration not given with the values). 300,000 tested, 0.8% active. AID 435005;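 active = all replicates at 75% or more, or half of them and the mean; inconclusive = half reach 75% but not the mean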;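 note: 0% = cytokine-treated negative control wells and 100% = positive control rescue; higher means more ATP so stronger rescue from cytokine killing; wells of about 40 µL received 100 nL stock; the first replicate is given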
E coli growth: inhibitors of Escherichia coli growth; OD600, 23 h; hits give low values; OD600 absorbance (concentration not given with the values); 330,000 tested, 0.21% active;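 active = OD600 absorbance below the run mean of sample wells minus 3.6 SD, in any replicate, cut at about 0.56 in these data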;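 note: stock transfer was 300 nL into about 60 µL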
UCH37 DUB inh: human UCH37 deubiquitinating enzyme inhibition | Q9Y5K5 | purified proteasome/UCH37, Ub-AMC cleavage fluorescence | inhibition, % (concentration not given with the values) | 330,000 tested, 0.33% active | AID 588478;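 active = mean of two replicates above 20%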;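 note: 0% = compound-free wells with enzyme and 100% = wells lacking proteasome; stock transfer was 100 nL into about 20 µL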
Target sequence (Q9Y5K5 whole entry, looked up): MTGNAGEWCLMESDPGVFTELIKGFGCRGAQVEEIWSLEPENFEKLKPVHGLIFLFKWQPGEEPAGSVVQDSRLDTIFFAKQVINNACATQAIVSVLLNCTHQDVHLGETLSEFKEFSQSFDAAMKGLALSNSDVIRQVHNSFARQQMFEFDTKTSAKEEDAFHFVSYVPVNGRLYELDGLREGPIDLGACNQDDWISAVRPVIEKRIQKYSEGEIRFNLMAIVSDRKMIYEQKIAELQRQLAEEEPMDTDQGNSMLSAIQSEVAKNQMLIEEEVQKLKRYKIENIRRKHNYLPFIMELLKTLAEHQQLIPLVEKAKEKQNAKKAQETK
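system = Proteasome-associated human UCH37 deubiquitinase | amount = 0.15 nM proteasome as dispensed | medium = pH 7.4 Tris-HCl (50 mM) with ovalbumin, ATP-MgCl2, DTT | incubation = 30 min preincubation with enzyme, 25 min cleavage at room temperature | detection = AMC fluorescence 355/460 nm | read-out basis = percent inhibition | controls = no-proteasome and no-compound wells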
Ecoli rRNA inh OD600: further read-out of Ecoli rRNA inh, marked with its call; OD600 change, %; measured here: OD600 growth;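 optical density of the mix in the first replicate; 0 = DMSO median and -100 = no signal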
Ecoli rRNA inh RFP: also measured in Ecoli rRNA inh; calls as there; RFP signal change, %; measured here: RFP humanized mutant strains;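 first replicate; 0 = DMSO median and -100 = no signal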
Numbers without * were called inactive; i = inactive; ? = inconclusive; / = no result given. A portion of the library; rates above refer to the full screens.

SMILES	FGF22 binding	T cruzi inh	AF4-AF9 inh	A1 inh	Ecoli rRNA inh	Ecoli rRNA inh OD600	Ecoli rRNA inh RFP	Beta cell apopt	E coli growth	UCH37 DUB inh
CCSc1nnc(NC(=O)CSc2nnc(Cc3cccn3C)n2-c2ccc(F)cc2)s1	i	9.0	1.6	/	2.8	2.3	4.0	/	/	/
Cc1cnccc1CNC(=O)C1CCC(=O)N(Cc2ccc(Cl)cc2)C1 (centres undefined)	i	-0.7	1.7	-0.3	-1.2	1.9	-0.3	-7.8	0.71	-1.8
COc1ccc(Cl)cc1N(C)C(=O)CCc1nc(-c2ccc(C)cc2)no1	/	23.0	/	0.3	/	/	/	-9.9	0.752	1.7
COc1ccc(-n2c(O)c(C=Nc3ccccc3)c3ccccc3c2=O)cc1	i	-2.2	1.1	0.8	21.2	8.5	1.0	4.9	0.705	-4.9
O=C(Nc1cc([N+](=O)[O-])ccc1F)c1cccs1	/	3.7	/	-0.7	/	/	/	-1.1	0.706	0.8
Cc1ccccc1NC(=S)NC(NC(=O)c1ccco1)C(Cl)(Cl)Cl (centres undefined)	i	6.1	-1.8	1.0	-11.9	-6.6	-11.4	-2.8	0.674	4.6
Nc1ccccc1Nc1nc2ccccc2[nH]1	i	8.7	13.6	0.8	6.2	12.2	3.0	/	0.61	3.3
O=C(CN(CC1CCCO1)C(=O)CCC(=O)Nc1ccccn1)NCc1ccccc1 (centres undefined)	/	-7.8	/	0.4	/	/	/	-3.2	0.75	7.4
CCc1ccc(CN(C(=O)c2cccs2)C2CCS(=O)(=O)C2)cc1 (centres undefined)	i	-9.0	0.2	-1.1	-4.9	-3.3	-0.2	-9.7	0.646	3.2
Cc1cc(=O)oc2cc(OC(C(=O)O)c3ccccc3)ccc12 (centres undefined)	i	-12.3	-1.5	-0.2	11.1	13.8	0.5	-5.4	0.685	-28.5
COc1cc(/C=C/C(=O)O)cc(S(=O)(=O)NNC(=O)c2cc(C)oc2C)c1OC	i	/	-0.8	0.0	4.7	7.5	-2.2	-3.6	0.659	1.9
CN(C)c1cccc(C(=O)N2CCCC(C(=O)c3cc(F)ccc3F)C2)c1 (centres undefined)	i	5.0	3.2	0.4	-13.3	-11.9	-3.4	-3.5	0.731	2.2
Cc1ccc(-n2nnnc2Sc2nc([N+](=O)[O-])nn2C)c(C)c1	/	44.5	/	1.1	/	/	/	-12.3	0.757	-3.4
CC(=O)Nc1ccc(NC(=O)CSc2nnc3ccc(-c4cccnc4)nn23)cc1	i	-7.6	-0.4	1.0	17.2	9.5	1.7	/	0.605	3.1
Cc1nsc2nc3c(F)c(F)c(F)c(F)c3cc12	i	-4.9	-5.4	-0.5	-7.8	-0.9	0.0	-5.4	0.693	-58.6
COc1ccc(C(=O)N/C(=C\c2ccco2)C(=O)NCCN2CCOCC2)cc1	/	0.4	/	-0.4	/	/	/	1.1	0.627	3.8
Cc1nn(-c2ccc(N3CCOCC3)nn2)c(C)c1CCC(=O)NCc1ccccc1F	i	-0.7	0.0	0.0	4.3	3.8	-2.7	-7.6	0.691	1.4
CCn1cc(C(=O)N[C@@H](C)C(=O)NCCCN2CCOCC2)c(=O)c2cc3c(cc21)OCO3	i	-10.3	0.6	0.5	-14.1	7.9	7.1	-2.1	0.583	-10.1
C=CCNC(=O)C1CC(=O)N(c2ccc(OCC(=O)NCc3ccccc3)cc2)C1 (centres undefined)	/	-8.2	/	-0.5	/	/	/	-3.9	0.738	0.8
CN(N)C(=S)Nc1ccc(F)cc1	i	-8.6	-2.8	0.4	-3.3	-1.1	-1.5	-14.2	0.686	0.6
CCCCn1c(N)c(N(CCOC)C(=O)c2ccc(S(=O)(=O)N3CCC(C)CC3)cc2)c(=O)[nH]c1=O	i	-9.7	-0.4	-0.2	1.4	3.7	-1.8	-4.9	0.648	-2.0
COc1ccc(N2CCN(c3ncnc4c3nnn4Cc3ccccc3Cl)CC2)cc1	/	37.6	/	0.6	/	/	/	9.5	0.702	0.1
COc1ccc(S(=O)(=O)Nc2c(C(=O)O)[nH]c3ccc(OC)cc23)c(OC)c1	i	1.0	18.2	0.7	5.6	-2.7	-2.0	-2.7	0.705	7.6
CC(C)C(=O)NC(=S)/C=C1/N(C)c2ccccc2C1(C)C	i	38.2	9.0	-1.5	-10.1	-14.0	66.8	109.1*	0.707	8.2
CC1CCN(CC(O)Cn2c3ccccc3c3ccccc32)CC1 (centres undefined)	i	-24.0	7.8	0.6	6.0	1.5	1.3	-0.7	0.626	2.8
Carrying on.
SMILES	FGF22 binding	T cruzi inh	AF4-AF9 inh	A1 inh	Ecoli rRNA inh	Ecoli rRNA inh OD600	Ecoli rRNA inh RFP	Beta cell apopt	E coli growth	UCH37 DUB inh
COc1ccc(S(=O)(=O)N2CCN(c3ccccc3OC)CC2)cc1C(=O)N1CCCCC1	i	7.3	-2.5	-0.1	1.8	3.6	3.1	0.0	/	/
COc1cccc(-c2nnc(SCC(=O)N3CCOCC3)o2)c1	/	/	/	-1.1	/	/	/	-0.7	0.776	2.7
CC1(C(=O)O)C=CC2(CCCCC2)N1C(=O)c1ccccc1 (centres undefined)	i	-8.9	2.0	-0.4	-0.6	8.3	4.2	-2.3	0.689	3.7
CCCOc1ccc(/C(O)=C2/C(=O)C(=O)N(CCCn3ccnc3)C2c2cccnc2)cc1 (centres undefined)	i	1.2	-1.3	1.0	/	/	/	-5.4	0.63	7.4
COc1ccccc1CNS(=O)(=O)c1ccc2c(c1)N(C(C)=O)CC(C)S2 (centres undefined)	i	8.5	0.8	-0.1	-11.7	-15.2	3.7	7.4	0.62	2.1
O/N=C/c1nc2cc(Cl)ccc2o1	i	-10.6	-0.4	-0.1	12.5	8.7	4.3	1.0	/	/
COc1cccc(OC)c1C(=O)N1CCOCC1	/	-12.9	/	-0.4	/	/	/	-2.3	0.684	0.7
CCOc1ccc(C(=O)Nc2ccc(N3CCN(C)CC3)cc2)cc1[N+](=O)[O-]	/	32.1	5.1	-0.5	5.8	11.5	4.2	/	0.684	5.0
CCCN(CC(=O)Nc1ccccc1OC)Cc1c(O)ccc2ccccc12	i	-14.5	0.9	0.5	-3.9	-1.8	-2.8	2.8	0.703	-0.1
O=C(O)c1cc(-c2ccc(O)cc2)on1	i	-9.5	-0.1	0.3	-7.2	-7.0	2.2	0.5	0.672	4.3
O=C(NC1CCCCC1)C1CCC(=O)N(C2CC2)C1 (centres undefined)	i	-17.6	-0.6	0.5	8.1	13.7	4.2	1.9	0.731	1.0
CCNC(=O)/C(C#N)=C/c1c(N2CCN(c3ccccc3)CC2)nc2ccccn2c1=O	i	0.4	7.1	1.2	2.9	3.5	2.7	4.3	0.669	-270.1
Cc1ccc(NC(=O)c2cc(N3C(=O)CCC3=O)ccc2N2CCCCC2)cc1	i	-4.3	-1.2	1.3	6.7	13.3	0.5	-1.3	0.696	-11.8
CCCCCCCOC(=O)c1nc(Cl)c(Cl)c(N)c1Cl	i	-0.3	-4.1	-0.1	-9.6	-7.1	-5.1	-4.3	0.665	5.4
COc1cc(Nc2cc(C)nc3ncnn23)cc(OC)c1	i	-14.1	0.5	1.5	4.6	5.7	2.8	-5.6	0.75	0.8
Cc1cc(C)n(-c2ccc(Cl)c(C(=O)O)c2)n1	i	-7.4	-1.0	0.0	5.6	4.7	2.2	-2.2	0.722	0.6
CC(=O)CC(c1ccccc1)S(=O)(=O)c1ccc([N+](=O)[O-])cc1 (centres undefined)	i	-11.2	-1.9	-0.1	-54.6	-78.6	-19.4	-0.7	0.665	1.2
O=C(NC(=O)c1cnccc1C(F)(F)F)Nc1ccccc1	i	-11.8	-0.9	-1.4	3.9	7.3	-2.0	0.0	0.609	2.9
CCOC(=O)C1CCN(C(=O)Nc2cc(Cl)cc(Cl)c2)CC1	i	8.5	-1.2	-0.9	-44.5	-52.6	-9.8	-2.3	0.642	3.7
O=C(Nc1ccc(O)cc1)/C(=C/c1ccco1)NC(=O)c1ccccc1	i	-12.1	-30.8	0.5	13.8	-4.1	-0.4	-5.9	0.655	7.7
CCOc1ccc(CN2CCN(Cc3cccn3-c3ncccn3)CC2CCO)cc1 (centres undefined)	i	10.2	10.0	-0.3	10.8	-0.9	-0.8	1.1	0.637	2.6
O=C(C1CCC(C(=O)N2CCCCC2)CC1)N1CCCCC1 (centres undefined)	/	-2.6	/	0.0	/	/	/	/	0.699	1.0
N#Cc1nc(-c2ccc(F)cc2)oc1NCc1cccc2c1OCO2	i	8.1	-0.5	-0.2	-10.3	-9.9	6.0	-7.7	0.695	-14.0
O=C(Nc1ccccc1)c1cccc(N2CCCC2=O)c1	/	-6.5	/	0.3	/	/	/	-4.8	0.626	-0.6
CCCCc1ccc(-c2ccc(Br)cc2O)nc1	/	2.3	/	1.2	/	/	/	3.8	0.704	2.4
COCCNC(=O)CSC1=N/C(=C/c2ccc(Cl)c(Cl)c2)C(=O)N1c1ccccc1F	/	-46.0	/	-0.4	/	/	/	?	0.704	-216.5
Cc1ccc(S(=O)(=O)CCC(=O)NCc2ccc(Cl)cc2)cc1	/	-5.7	/	-1.4	/	/	/	-1.7	0.721	1.8

Copied from the entries so far, two compounds:
SMILES	FGF22 binding	T cruzi inh	AF4-AF9 inh	A1 inh	Ecoli rRNA inh	Ecoli rRNA inh OD600	Ecoli rRNA inh RFP	Beta cell apopt	E coli growth	UCH37 DUB inh
N#Cc1nc(-c2ccc(F)cc2)oc1NCc1cccc2c1OCO2	i	8.1	-0.5	-0.2	-10.3	-9.9	6.0	-7.7	0.695	-14.0
O=C(Nc1ccccc1)c1cccc(N2CCCC2=O)c1	/	-6.5	/	0.3	/	/	/	-4.8	0.626	-0.6

Arranged by molecular weight (low to high): some entries from above
SMILES	FGF22 binding	T cruzi inh	AF4-AF9 inh	A1 inh	Ecoli rRNA inh	Ecoli rRNA inh OD600	Ecoli rRNA inh RFP	Beta cell apopt	E coli growth	UCH37 DUB inh
O=C(O)c1cc(-c2ccc(O)cc2)on1	i	-9.5	-0.1	0.3	-7.2	-7.0	2.2	0.5	0.672	4.3
COc1cc(Nc2cc(C)nc3ncnn23)cc(OC)c1	i	-14.1	0.5	1.5	4.6	5.7	2.8	-5.6	0.75	0.8
CC(C)C(=O)NC(=S)/C=C1/N(C)c2ccccc2C1(C)C	i	38.2	9.0	-1.5	-10.1	-14.0	66.8	109.1*	0.707	8.2
COc1ccc(-n2c(O)c(C=Nc3ccccc3)c3ccccc3c2=O)cc1	i	-2.2	1.1	0.8	21.2	8.5	1.0	4.9	0.705	-4.9
CN(C)c1cccc(C(=O)N2CCCC(C(=O)c3cc(F)ccc3F)C2)c1 (centres undefined)	i	5.0	3.2	0.4	-13.3	-11.9	-3.4	-3.5	0.731	2.2
COc1ccc(Cl)cc1N(C)C(=O)CCc1nc(-c2ccc(C)cc2)no1	/	23.0	/	0.3	/	/	/	-9.9	0.752	1.7
COc1ccccc1CNS(=O)(=O)c1ccc2c(c1)N(C(C)=O)CC(C)S2 (centres undefined)	i	8.5	0.8	-0.1	-11.7	-15.2	3.7	7.4	0.62	2.1
